# Sfp PPTase inh: qHTS Assay for Inhibitors of Bacillus subtilis Sfp phosphopantetheinyl transferase (PPTase); Potency, µM, inactives show max response, negative = inhibition, most hits filed as inhibitors; 4'-phosphopantetheinyl transferase ffp (Bacillus subtilis), Q9F4F7; hit rate 3.5% among 310,000; Biochemical Sfp PPTase activity, qHTS; active = well fitted inhibition curve with a large enough effect; inconclusive = small, poorly fitted or top-dose-only effect, or another doubt; inactive = no such curve, though single readings can be large or run the other way;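 note: the enzyme is Sfp with the accession as filed and its product quenches rhodamine fluorescence; potency is the fitted concentration of half-maximal effect; 0% = enzyme reaction without inhibitor and -100% = no enzyme wells; top concentration of the series not given in the record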
#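 Buffer: 50 mM Hepes-Na pH 7.6, 10 mM MgCl2, 0.01% Nonidet P-40, 0.01% BSA. Enzyme 15 nM, pre-exposed to compound 15 min; substrates then added and fluorescence change tracked over 30 min.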
# TRPML1 blocker: qHTS for Inhibitors of the Human Mucolipin Transient Receptor Potential 1 (TRPML1). hit rate 0.02% among 390,000. Mucolipin-1 (Homo sapiens), Q9GZU1. activity change, negative = inhibition, % (test concentration not listed). TRPML1-inducible cells, Ca2+ dye fluorescence, FDSS; stronger effect = lower value; inhibition of EC80 agonist-evoked calcium signal; in the data active means activity change below about -50%; inconclusive means about -30% to -50%; inactive means above about -30%;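 note: stimulus is agonist 54-4 at its EC80 concentration; % is set by controls: 0 for no effect and ±100 for the full control effect; compound concentration not given in the record; the text of the record puts the active cut at -80%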
#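 TRPML1-DL cells, Tet-induced overnight (~16 h, 37 °C) at 1,500 cells/well, were loaded with Ca8 no-wash dye plus quencher for 45-90 min at room temperature. Compounds were pinned during FDSS kinetic reading; agonist 54-4 at EC80 (4 uM final) then added.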
# ClpP mod: qHTS Assay for Activators of ClpP; ATP-dependent Clp protease proteolytic subunit (Bacillus subtilis (strain 168)), P80244; hit rate 1.9% among 340,000; Potency, µM (top dose mostly 57.5 µM), for the others: at the highest dose activity change, negative = active; purified B. subtilis ClpP, FRET peptide cleavage, 20 min; active = well fitted falling curve with a large enough effect; inconclusive = small, poorly fitted or top-dose-only effect; inactive = no such curve, though single readings can be large or run the other way; note: potency is the fitted concentration of half-maximal effect; the source files actives as falling curves though it sought activators and does not explain the sign; nearly all actives have a fitted effect of over 65% in size; many hits overshoot -100%
# Target sequence (P80244 whole entry, looked up): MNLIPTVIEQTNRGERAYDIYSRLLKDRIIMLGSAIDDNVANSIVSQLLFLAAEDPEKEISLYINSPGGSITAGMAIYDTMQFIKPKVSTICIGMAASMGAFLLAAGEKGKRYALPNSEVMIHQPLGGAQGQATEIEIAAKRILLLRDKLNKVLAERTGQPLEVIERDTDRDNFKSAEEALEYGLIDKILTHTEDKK
#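 Purified B. subtilis ClpP, 10 microg/mL final in Tris/HCl pH8 with KCl, BSA, glycerol and Tween-20, cleaved an Abz/nitrotyrosine-quenched decapeptide. Fluorescence (ex 320, em 430) was read at 0 and 20 min at room temperature. Delta was normalized to 5.8 microM ADEP and DMSO/no-enzyme controls.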
# gsp antagonist: qHTS for Antagonists of gsp, the Etiologic Mutation Responsible for Fibrous Dysplasia/McCune-Albright Syndrome: qHTS | AID 624288, 2012 | gsp-mutant cells, cAMP HTRF, 30 min; control for the full effect not named in the record | hit rate 0.4% among 340,000 | Potency, µM (top dose mostly 76.9 µM), for the others: at the highest dose activity change, negative = inhibition, usual class: inhibitors; active = falling curve of any shape with a large fitted effect; inconclusive = falling curve, mostly with a smaller effect; inactive = flat or rising curve; cell line not stated here;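 note: intracellular cAMP measured with PDE inhibitor Ro 20-1724 present during compound exposure; potency is the fitted concentration of half-maximal effect; % is set by controls: 0 for no effect and ±100 for the full control effect; nearly all actives have a fitted effect of over 65% in size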
#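 Cells in G418 medium, seeded 16-24 h, 37C; buffer exchange to DPBS + 1 mM CaCl2, 0.5 mM MgCl2, 0.05% BSA; cpds in DMSO + […] (300 uM stock), 30 min 37C; HTRF cAMP detection.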
# gsp agonist: qHTS for Agonist of gsp, the Etiologic Mutation Responsible for Fibrous Dysplasia/McCune-Albright Syndrome: qHTS; gsp mutant cells, cAMP HTRF, 30 min; control for the full effect not named in the record; Potency, µM (series often up to 76.9 µM), for the others: at the highest dose activation (cAMP increase), actives largely listed as activators; hit rate 0.13% among 340,000; AID 624287, 2012; active = well fitted activation curve with a large enough effect; inconclusive = small, poorly fitted or top-dose-only effect, or another doubt; inactive = no such curve, though single readings can be large or run the other way; cell line not stated here;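 note: phosphodiesterase inhibitor Ro 20-1724 added with compounds to block cAMP breakdown; potency is the fitted concentration of half-maximal effect; nearly all actives have a fitted effect of over 60% in size; about a fifth of the inactives were tested at one dose only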
#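 Cells stably selected in G418 were plated at 2000/well, grown 16-24 hr, then given compounds in DMSO with the PDE inhibitor […] (300 uM solution added) for 30 min at 37C; cAMP was read by HTRF.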
# TRPV1 PAM: HTS Assay for Compounds that Act as Potentiators of the Vanilloid Receptor 1. Transient receptor potential cation channel subfamily V member 1 (Homo sapiens), Q8NER1. TRPV1-expressing cells, Fluo-8 calcium influx, capsaicin EC20 potentiation; host cell line not named in the record; control for the full effect not named in the record. potentiation, % at 8.33 µM. hit rate 0.02% among 320,000. AID 540277, 2011; active means potentiation above 80%; inconclusive means 30% to 80%; inactive means below 30%; note: 0% is about no effect
# Target sequence (Q8NER1 whole entry, looked up): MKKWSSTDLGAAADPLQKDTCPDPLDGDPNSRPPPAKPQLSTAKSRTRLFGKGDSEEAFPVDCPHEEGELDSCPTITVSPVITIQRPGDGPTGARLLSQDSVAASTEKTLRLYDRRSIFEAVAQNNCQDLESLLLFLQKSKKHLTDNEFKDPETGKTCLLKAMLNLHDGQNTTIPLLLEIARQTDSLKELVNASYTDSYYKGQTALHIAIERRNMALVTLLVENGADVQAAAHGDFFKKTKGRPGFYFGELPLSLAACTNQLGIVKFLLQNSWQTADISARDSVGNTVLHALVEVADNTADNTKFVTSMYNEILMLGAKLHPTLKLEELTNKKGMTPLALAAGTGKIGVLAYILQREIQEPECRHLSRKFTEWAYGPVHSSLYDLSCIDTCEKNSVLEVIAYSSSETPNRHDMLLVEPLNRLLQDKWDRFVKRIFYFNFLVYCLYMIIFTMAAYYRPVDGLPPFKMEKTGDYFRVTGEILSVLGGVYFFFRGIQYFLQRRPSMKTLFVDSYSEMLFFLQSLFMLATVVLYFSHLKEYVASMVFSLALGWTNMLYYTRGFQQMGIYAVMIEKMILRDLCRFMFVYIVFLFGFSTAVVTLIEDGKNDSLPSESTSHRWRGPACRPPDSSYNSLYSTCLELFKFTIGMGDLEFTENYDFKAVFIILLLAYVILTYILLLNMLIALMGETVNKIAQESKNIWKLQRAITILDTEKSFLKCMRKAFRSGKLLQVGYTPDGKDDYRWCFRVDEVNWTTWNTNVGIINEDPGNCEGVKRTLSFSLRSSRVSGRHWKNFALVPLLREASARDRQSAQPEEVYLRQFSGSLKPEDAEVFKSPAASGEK
#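 Cells expressing TRPV1 were dye-loaded with Fluo-8 and read kinetically: 10 s baseline, 3 min after compound (agonist portion), then 2 min after EC20 capsaicin (allosteric enhancer portion). Calcium-bound dye fluorescence at 480/520 nm.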
# Menin MLL FP FL: qHTS Assay for Inhibitors Targeting the Menin-MLL Interaction in MLL Related Leukemias: Competition With Fluorescein Labeled MLL-derived Peptide. Fluorescence polarization, fluorescein-MLL peptide displacement from menin. FP activity change, % at 61.4 µM. 290,000 tested, under 10 active. AID 1766, 2009; inconclusive = falling polarisation curve, or a change in total fluorescence; inactive = total fluorescence flat and polarisation flat or rising; no compound was filed as active; the % refers to the polarisation; negative = inhibition;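 note: % of control where 0% means no effect; inhibitors lower the polarisation; unlabelled MLL peptide was the positive control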
# An asterisk follows results filed as active; ? = inconclusive; . = no result given; & = joins results of further samples; [ ] = another dose, or the depositor's remark.
molecule	ClpP mod	gsp antagonist	gsp agonist	Sfp PPTase inh	TRPV1 PAM	Menin MLL FP FL	TRPML1 blocker
COc1cc(/C=N/Nc2nn3cnnc3c3ccccc23)ccc1O	-1.2%	-21%	?	40µM*	2	-0.8	-12
CC(=O)N1CCN(c2ccc(NC(=O)C(c3ccccc3)c3ccccc3)cc2)CC1	.	2%	-35%[inhibitor]	4%	?	0.7	-4
CCOc1ccc(/C=N/Nc2ccccn2)cc1OC	.	-8%	17%[15.4 µM]	56µM*	-4	0.3	22
O=C(NCCC(=O)N1CCCC(C(F)(F)F)C1)c1ccc(Br)cc1 (stereo not given)	-2.7%	-8%	-42%[inhibitor]	2%	-1	.	23
COCc1cc(C)nc(NCCO)c1C#N	32µM*	16%	5%	-3%	-1	-0.5	14
CCOc1ccc(CN2CCNC(=O)C2CC(=O)NCc2csc(C)n2)cc1 (stereo not given)	28µM*	-13%	?	-9%	-3	-4.0	-3
C/C(Cn1nc([N+](=O)[O-])cc1C)=N\NC(=O)c1ccc(C(C)(C)C)cc1	0.7%	4%	-2%	4%	0	0.3	24
COc1cccc(CSc2nc3ccncc3[nH]2)c1	.	10%	10%[15.4 µM]	3%	-7	-0.7	12
CCOc1cc(/C=N/NC(=O)C(=O)NC2CC2)cc(Br)c1O	-8.2%	-27%	-22%	0%	0	4.9	43
Cc1ccc(S(=O)(=O)N2CCC(C(=O)OCC(=O)Nc3cc(S(C)(=O)=O)ccc3Cl)CC2)cc1C	-0.1%	-14%	-12%	5%	4	.	16
O=C1CC(NCCC2=CCCCC2)C(=O)N1c1cccc(Cl)c1Cl (stereo not given)	.	.	.	?	4	3.8	.
COc1ccc(/C=C2\C(=O)OCc3cc(OC)c(OC)cc32)cc1OC	-2.3%	12%	0%	?	8	-0.5	-7
O=C(O)C1=C[C@H](c2cccs2)C[C@H](OCc2ccc(CO)cc2)O1	-6.0%	2%	1%	0%	-18	13	6
O=[N+]([O-])/C=C/c1cn(Cc2ccccc2)c2ccccc12	0.3%	2%	11%	?	29	?	5
Cc1nnc(SCC(=O)c2ccc(Br)cc2)s1	-0.3%	-10%	-4%	2%	-14	1.8	28
Cc1cccc(-c2nc(CS(=O)CC(=O)N3CC(C)CC(C)C3)c(C)o2)c1 (stereo not given)	-6.0%	-8%	11%	1%	-5	-2.6	1
O=C(NCc1ccc(Cl)cc1)C1CCN(S(=O)(=O)c2ccc(N3CCCC3=O)cc2)CC1	-1.6%	-11%	11%	4%	-1	.	-17
COc1ccc(OC(=O)c2cccc([N+](=O)[O-])c2)c(C(=O)/C=C/c2cccs2)c1	-5.1%	-4%	8%	5%	15	0.2	51
Cc1cc(NC(=O)CN2C(=O)NC(CC(C)C)C2=O)ccc1Br (stereo not given)	-1.6%	2%	21%	.	3	.	15
CCCC(C(=O)NCc1ccco1)N(C(=O)CNS(=O)(=O)c1ccccc1)c1ccccc1OC (stereo not given)	0.6%	-13%	-3%	-7%	-7	2.9	42
CCCCCC(=O)Nc1cccc(C2=NOC3(C2)C[C@H](C(N)=O)N(C(=O)c2ccccc2)C3)c1 (stereo not given in full)	-6.8%	7%	.	14%	-38	-1.1	0
NC(=O)c1ccc2c(c1)OCCO2	31%	-2%	?	0%	-1	1.3	-2
CCOc1ccc(CNC(=O)CCCn2nc(C)c3c(C)n(-c4ccc(C)cc4)nc3c2=O)cc1	-1.0%&-3.1%	-26%	13%	5%	-1	1.3	-3&-3
COc1cc(OC)cc(C(=O)NCCS(=O)(=O)N2CCN(Cc3ccccc3)CC2)c1	.	-20%	-4%[15.4 µM]	.	10	.	-5
CCOC(=O)N1CCC(NCCNC(=O)c2ccccc2)CC1	-1.2%&-2.5%	15%&10%	-31%[inhibitor]	-15%	4&1	3.0	-2&-13
Cc1ccc(S(=O)(=O)c2cnc3cc(C)nn3c2N)cc1	.	14%	-11%[15.4 µM]	-5%	-14	-0.6	-1
COc1ccc(N(C)S(=O)(=O)c2cccc(C(=O)N3CCN(S(=O)(=O)c4ccc(C)cc4)CC3)c2)cc1	-0.8%	-18%	5%	15%	10	.	2
Cc1cc(C(=O)CSc2nnc3c(Cl)cc(Cl)cn23)c(C)n1C	4.0%	4%[15.4 µM]	-1%	3%	0	4.5	4
COc1ccc(CCNC(=O)c2cc(C(=O)c3cc(C)ccc3O)cn(CCc3ccc(OC)cc3)c2=O)cc1	?	?	2%[15.4 µM]	9%	13	6.3	-4
COCCn1c(=O)c2ccccc2c2ccccc2c1=O	.	11%	-2%	-5%	-11	4.2	12
c1csc(-c2nc3ccccc3[nH]2)c1	20%	2%	-22%	-4%	-6	-1.5	-5
O=C(CN1CCN(Cc2ccc3c(c2)OCO3)CC1)Nc1ccc2c(c1)OCCO2	-3.2%	6%	-10%	0%	1	3.6	-2
O=C(CN1C(=O)C(=O)N(Cc2ccco2)C1=O)Nc1ccccc1	-1.5%	9%	8%[15.4 µM]	.	.	.	5
CCOC(=O)c1ccc(N2CCOCC2)c(NC(=O)c2nccnc2C(=O)O)c1	0.6%	22%	-12%	-1%	5	.	-15
CSc1nnc(-c2cnccn2)n1C	-6.5%	7%	9%	12%	5	-1.7	-4
Cc1ccc(C(=O)N2CCCC(C(F)(F)F)C2)cc1S(=O)(=O)N1CCOCC1 (stereo not given)	3.0%	11%	-2%	.	-13	.	16
CC(C)(C)OC(=O)NCCCC[C@@H](C(=O)N1CCN(C(=O)OC(C)(C)C)CC1)n1cc(CCC(=O)O)nn1	2.3%	12%	-12%	-2%	12	-2.2	16
COc1cccc(-n2cc(CN(C)C(=O)C3CCC(=O)N(C4CC4)C3)cn2)c1 (stereo not given)	-4.0%	.	38%	.	.	.	-6
Nc1nc(-c2ccccc2Br)cs1	-1.9%	0%	5%	10%	2	-0.5	-7
CCN1CCN(C(=O)Cn2c(=O)sc3ccccc32)CC1	0.5%	9%	-10%	25%	.	-3.0	-9
Cc1ccc(NS(=O)(=O)c2ccc(NC(=O)CSc3ccc(Cl)cc3)cc2)c(C)c1	0.5%	-12%	?	17%	13	7.0	36
O=C(O)c1ccccc1CSc1nnc2c(n1)[nH]c1ccccc12	.	11%	48%[15.4 µM]	56µM*	-3	-5.0	-7
Cc1ccc(S(=O)(=O)NC(C)(C)C)cc1C(=O)OC(C)C(=O)NC1CC1 (stereo not given)	-2.5%	-11%	-31%	.	-3	.	7
O=C(NCc1ccco1)c1ccccc1NS(=O)(=O)c1ccc(Br)s1	-0.4%	?	-6%	0%	?	5.4	-6
COc1ccc(CCN2C(=O)NC(NC(=O)C(C)(C)C)(C(F)(F)F)C2=O)cc1OC (stereo not given)	1.5%	10%	18%	23%	-2	3.5	-7
O=c1c2ccccc2ncn1CCCCOc1ccc(Br)cc1	1.3%	21%	-43%	2%	4	0.5	-4
Cc1ccc(OCCNC(=O)CCc2ccccc2)cc1C	.	-3%	9%[15.4 µM]	.	.	.	-11
C=CC1=CCN(S(=O)C(C)(C)C)[C@@H]1CCO (stereo not given in full)	0.5%	11%	.	.	.	.	-11
Cc1sc2ncn(CC(=O)NCC(=O)N3CCN(c4ccccc4F)CC3)c(=O)c2c1C	-2.2%	7%	-3%	23%	2	-1.1	8
CC(C)CN(C(=O)COC(=O)Cc1ccc(Cl)cc1)c1c(N)n(Cc2ccccc2)c(=O)[nH]c1=O	-1.6%	9%	16%	.	1	.	0
COC(=O)C1=C(C(=O)OC)C2(OC1c1ccccc1C)C(=O)c1ccccc1C2=O (stereo not given)	-0.9%	-6%	-6%	-29%	-1	-2.3	9
Cc1[nH]nc2c1C(=O)CCC2	1.6%	8%	-14%	14%	23	6.7	5
CC(=O)c1cccc(NC(=O)c2ccoc2C)c1	.	4%	-5%	-4%	3	-0.3	-15
C/C(=C\C(=O)C(F)(F)F)Nc1ccc(C)cc1	-0.1%	7%	-33%[inhibitor]	29%	6	3.3	12
CC(=O)c1cccc(NC(=O)COc2ccc3oc(=O)cc(C)c3c2)c1	-24%	-20%	.	10%	7	0.2	.
COCCNC(=O)c1cccc(OC2CCN(Cc3cccc(SC)c3)CC2)c1	-1.7%	-4%	-8%[15.4 µM]	18%	-12	-2.1	8
Cc1cc(OCC(=O)Nc2ncn[nH]2)ccc1Cl	1.4%&-4.9%	6%	-7%	.	-11	.	0&3
COc1ccc(Nc2nc(C)nc3sc4c(c23)CCC4)cc1O	.	-8%	2%	17%	-12	1.1	-7
O=S(=O)(N/N=C/c1ccc2c(c1)OCO2)c1ccc(Br)cc1	1.3%	0%	20%	4%	5	.	3
COc1ccc(N=Nc2c(N)nn(C)c2N)cc1	.	?	25%	.	.	.	-7

# Going on with the list.
molecule	ClpP mod	gsp antagonist	gsp agonist	Sfp PPTase inh	TRPV1 PAM	Menin MLL FP FL	TRPML1 blocker
COc1ccccc1CNC(=O)c1cn(C)c2ccc(S(=O)(=O)N3CCCC3)cc2c1=O	.	.	-2%[15.4 µM]	17%	-15	3.4	12
CSc1nccc(NC(=O)c2ccc(C(C)(C)C)cc2)n1	-0.6%	?	4%	-8%	-16	-1.1	25
COc1cccc(C(=O)Nc2cccc(-c3ccc(N4CCOCC4)nn3)c2)c1	1.1%	0%	-25%	.	?	.	8
CCc1nnc(NC(=O)c2ccc(-c3ccc(C(C)=O)cc3)o2)s1	4.1%	4%	23%	.	-5	.	0

# Screening data deposited in PubChem BioAssay by National Center for Advancing Translational Sciences (NCATS).
